VDR inh – inhibitors of human vitamin D receptor; 400,000 tested, 0.93% active; P11473; AID 504847; VDR-SRC2-3 peptide fluorescence polarization, 2 h; Potency, µM, for the others: max response, negative = inhibition, usual class: inhibitors; active = well fitted inhibition curve with a large enough effect; inconclusive = small, poorly fitted or top-dose-only effect, or another doubt; inactive = no such curve, though single readings can be large or run the other way; also: series mostly up to about 120 µM
Target sequence (P11473 whole entry, looked up): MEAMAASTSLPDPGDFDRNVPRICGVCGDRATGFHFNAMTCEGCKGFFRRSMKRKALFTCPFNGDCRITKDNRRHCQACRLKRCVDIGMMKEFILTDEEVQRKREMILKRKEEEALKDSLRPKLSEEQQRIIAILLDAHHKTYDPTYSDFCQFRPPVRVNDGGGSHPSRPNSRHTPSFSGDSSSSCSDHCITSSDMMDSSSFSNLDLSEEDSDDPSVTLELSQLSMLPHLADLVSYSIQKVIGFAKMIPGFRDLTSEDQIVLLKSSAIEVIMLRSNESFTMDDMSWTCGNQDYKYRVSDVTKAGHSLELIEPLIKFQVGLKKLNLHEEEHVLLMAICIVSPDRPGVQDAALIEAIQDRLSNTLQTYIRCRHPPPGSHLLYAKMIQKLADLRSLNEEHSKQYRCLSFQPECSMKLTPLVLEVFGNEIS
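VDR–SRC2-3 interaction, FP format. Cmpds 23 nl via pintool, brief spin, 2 h ambient incubation.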
Numbers without * were called inactive; & = joins results of further samples; [ ] = dose if it differs, or a comment. % is scaled to controls: 0 for no effect and ±100 for the full control effect; potency is read from the fitted curve at half-maximal effect. These rows are one share of the data; the hit share may differ from the screen's.

COc1ccc(CNC(=O)CSc2nccn(-c3ccc(F)c(F)c3)c2=O)cc1 was read as VDR inh -15.5%.
For COc1ccc(CNCc2c(C(=O)O)c(C)n(Cc3ccccc3C)c2C)c(OC)c1 the results were VDR inh 17.7%.
CC(C)=CCN1CCN(Cc2cccn2-c2ccccn2)CC1CCO (centres undefined) was read as VDR inh -13.6%.
`O=C(c1cccs1)N(c1ccc(Cl)cc1)C1C=CS(=O)(=O)C1` (centres undefined) gave VDR inh -3.1%.
Screening Cc1ccc(N(CC(=O)N2CCOCC2)S(C)(=O)=O)cc1C returned VDR inh 7.7%.
Screening Cc1cc(C)n(-c2nnc(Nc3ccc(C(C)C)cc3)c3ccccc23)n1 returned VDR inh -7.0%.
`CC(=O)N[C@@H](CCCNC(=N)N)C(=O)N[C@H](CC1CCCCC1)C(=O)N[C@@H]1CCC2SC[C@@H](C(=O)N[C@H](CCCNC(=N)N)C(=O)N[C@H](Cc3ccc(Cl)cc3)C(N)=O)N2C1=O` (some centres undefined) gave VDR inh 2.0%.
O=[N+]([O-])c1ccc2c(c1)Cc1cc(F)ccc1-2 was read as VDR inh 0.9%.
For CCc1ccc(C(=O)NCc2ccc(Cl)cc2)cc1 the results were VDR inh -6.5%.
CCn1c(/C=C2\C(=O)N(C(C)C)c3ccccc32)nc2ccccc2c1=O was read as VDR inh 6.6%.
Screening CNc1nc2ccccc2n1N returned VDR inh 15.0%.
`CCNC(=S)NNC(=O)c1c(Cl)c(C)nn1C` gave VDR inh -11.0%.
`O=C1CC(c2ccc(Cl)cc2)c2cc3c(cc2N1)OCCO3` (centres undefined) gave VDR inh -29.2%.
`O=C1CCC(/C=C/c2ccccc2)=NN1Cc1ccccc1Cl` gave VDR inh 8.4%.
For COc1cc(/C=N/NC(=O)c2csc3c2CCCC3)cc(OC)c1O the results were VDR inh -14.7%.
Screening Cc1ccccc1N1CC(C(=O)N2CC(C)CC(C)C2)CC1=O (centres undefined) returned VDR inh -20.8%.
For O=C(NC1CCCC1)c1ccc(CSc2nc3ccncc3n2Cc2cccc(F)c2)cc1 the results were VDR inh 13.1%.
For Cc1nc2ccc(NC(=O)c3ccc([N+](=O)[O-])cc3)cc2[nH]1 the results were VDR inh -2.3%.
Screening CC(=O)[C@@H]1[C@@H](C(=O)c2ccc(F)cc2)[C@]2(C(=O)Nc3ccccc32)[C@H]2C=Cc3cc(F)ccc3N12 returned VDR inh 0.6%.
For O=C(NCCCN1CCCCC1)C1CCC(CNS(=O)(=O)c2cccc3nsnc23)CC1 (centres undefined) the results were VDR inh -15.3%.
Screening COc1ccc(Cl)cc1NC(=O)CN(C)C(=O)CSc1ccc2c(c1)OCCO2 returned VDR inh 3.7%.
CCn1cc(C(=O)NC(=S)Nc2cccc(O)c2)cn1 was read as VDR inh 3.8%.
Screening C#CCOC(=O)CN1C(=O)c2cccc3cccc(c23)C1=O returned VDR inh -6.6%.
Cc1cc(-c2ccccc2)nc(N2CCN(c3ccccn3)CC2)n1 was read as VDR inh -16.6%.
CC(C)CCN(C(=O)CNC(=O)c1ccco1)C(C(=O)NC1CCCCC1)c1cccnc1 (centres undefined) was read as VDR inh -14.3%.
Screening CCN1CCN(Cc2ccc(NC(=O)c3cc(NC(=O)C(=O)c4c[nH]c5ccccc45)cc(OC)c3)cc2C(F)(F)F)CC1 returned VDR inh 48.5%[activator].
For C=C(C)c1nc(N)nc(N)n1 the results were VDR inh 10.4%.
Cc1ccc(Nc2c(-c3ccc(C)s3)nc3cccc(C)n23)cc1 was read as VDR inh -11.7%.
Cc1nc(Cl)c2c(n1)NC(=O)CO2 was read as VDR inh -21.7%.
Screening O=S(=O)(NC(=NC1CCCCC1)c1ccccc1)c1ccccc1 returned VDR inh -14.5%.
`CCOC(=O)N1CCN(C(=O)c2ccc3c(c2)NC(=O)C(N2CCOCC2)S3)CC1` (centres undefined) gave VDR inh 1.1%.
For Cc1cc(C)c(S(=O)(=O)N2CCCC(C(=O)N3CCCC3)C2)c(C)c1 (centres undefined) the results were VDR inh 8.2%.
`Cn1c(N)c(C(=O)CCl)c(=O)n(Cc2ccccc2)c1=O` gave VDR inh 11.3%.
For C=C(C)c1cccc(C(C)(C)NC(=O)N2CCC(C)CC2)c1 the results were VDR inh -4.9%.
For Cc1ccc(S(=O)(=O)N2CC(O)CC2C(=O)OCC(=O)Nc2ccc([N+](=O)[O-])cc2C(F)(F)F)cc1C (centres undefined) the results were VDR inh -5.0%.
`COC(=O)NC(CCc1ccccc1)C(C(=O)OC)C(=O)OC` (centres undefined) gave VDR inh -8.2%.
`CSc1nnc(NC(=O)c2ccco2)s1` gave VDR inh 14.1%.
Screening CC1(OC(=O)CCc2ccccc2)C(=O)C=C2C=C(c3ccc(C#N)cc3)N(CCc3c[nH]c4ccccc34)C=C2C1=O (centres undefined) returned VDR inh inconclusive.
For COC(=O)c1sc(S(=O)(=O)Nc2ccc(C)c(C)c2)c(C(=O)OC)c1C the results were VDR inh -0.3%.
Screening COc1cc(OC)cc(C(=O)Nc2nc(CC(=O)NCCc3ccccc3)cs2)c1 returned VDR inh 8.7%.
`O=C(N/N=C/c1cccc([N+](=O)[O-])c1)c1ccc2c(c1)OCCO2` gave VDR inh -5.3%.
Screening O=C(COC(=O)c1cc([N+](=O)[O-])ccc1NCCO)NCc1cccs1 returned VDR inh 0.5%.
`COc1ccc(S(=O)(=O)N2CCN(c3ccc(C)cc3C)CC2)cc1OC` gave VDR inh -26.9%.
Screening COc1cc(C(=O)N=c2sccn2C)c([N+](=O)[O-])cc1OC returned VDR inh -4.8%.
Screening COc1ccc(-c2cc(C(F)(F)F)nc(SCC(=O)Nc3ccc(C(C)=O)cc3)n2)cc1 returned VDR inh -19.8%.
COc1ccc(S(=O)(=O)n2nc(-c3ccc(Cl)cc3)cc2N)cc1OC was read as VDR inh 3.4%.
CCc1ccc(-c2cc(C(=O)N3N=C(C(F)F)CC3(O)C(F)F)c3ccccc3n2)cc1 (centres undefined) was read as VDR inh -5.9%.
For O=C(CCCCC(=O)NNC(=O)COc1ccccc1)NNC(=O)COc1ccccc1 the results were VDR inh 10.2%.
`Cc1cc(C)n2nc(C(=O)OCC(=O)c3ccc(F)cc3)nc2n1` gave VDR inh -5.6%.
O=C(NCc1ccncc1)C(=O)NCC1OCCN1S(=O)(=O)c1ccc(F)cc1 (centres undefined) was read as VDR inh 17.3%.
Screening COc1ccc(-c2nnn(CC(=O)NCCc3c[nH]c4ccccc34)n2)cc1OC returned VDR inh 0.7%.
For CCCNC(=O)c1ccc(Cn2c(SCC(=O)NC(C)C)nc3ccccc3c2=O)cc1 the results were VDR inh -1.3%.
Screening COc1ccc(NC(=O)CS(=O)(=O)c2ccc(F)cc2)cc1 returned VDR inh 10.9%.
Screening Cc1cccc[n+]1CC(=O)Nc1ccc([N+](=O)[O-])cc1Cl returned VDR inh 9.5%.
Screening NS(=O)(=O)c1cc(C(=O)Nc2ccc3c(c2)OCCCO3)ccc1Cl returned VDR inh -9.1%.
Screening NC(=O)c1ccccc1N(Cc1ccccc1)S(=O)(=O)c1ccccc1 returned VDR inh -6.1%.
Cc1cccc(C(=O)NCCN(C)C)c1 was read as VDR inh 51.7%[activator].
For O=C(CCC(=O)N1CCOc2ccccc21)NCCCN1CCN(Cc2ccccc2)CC1 the results were VDR inh 8.6%.
For O=C(NCc1ccc(F)cc1)C(c1ccncc1)N(C(=O)c1csnn1)C1CC1 (centres undefined) the results were VDR inh -3.8%.
O=C(COc1ncnc2ccc(Br)cc12)Nc1ccc(N2CCOCC2)cc1 was read as VDR inh 6.7%.
For CCOC(=O)c1oc2c(CN3CCCCC3C)c(O)ccc2c(=O)c1-c1ccc(OC)c(OC)c1 (centres undefined) the results were VDR inh 16.1%.
For Cc1ccc(CNC(=O)C2c3ccccc3C(=O)N3CCc4ccccc4C23)o1 (centres undefined) the results were VDR inh inconclusive.
COc1ccc(-n2c(C)ccc2C)c([N+](=O)[O-])c1 was read as VDR inh -12.8%.
Screening O=C(O)C(CCCCNS(=O)(=O)c1ccc(F)cc1)NS(=O)(=O)c1ccc(F)cc1 (centres undefined) returned VDR inh 1.6%&2.2%.
O=C(NCCc1cccs1)C1CC(c2ccccc2F)=NO1 (centres undefined) was read as VDR inh -3.7%.
CCc1ccc(CNCCSc2nnnn2C)cc1 was read as VDR inh -4.6%.
Screening CCOc1ccc(C(=O)CCC(=O)Nc2ncccc2O)cc1 returned VDR inh 1.9%.
For COc1cc2c(cc1OC)C(c1ccc(O)cc1)NCC2 (centres undefined) the results were VDR inh -20.1%.
`Cc1cccc(N(CC(=O)NC(C)(C)C)C(=O)CNC(=O)c2cccs2)c1` gave VDR inh 5.1%.
`C[C@H](C(=O)CC(=O)OC(C)(C)C)[C@H](O)c1ccccc1` gave VDR inh 3.5%&-7.7%.
For O=C(CN1CCN(c2nc(-c3ccccc3)cs2)CC1)NCc1ccc2c(c1)OCO2 the results were VDR inh 11.3%.
O=C(/C=C/c1ccc([N+](=O)[O-])cc1)N(c1ccccn1)C1CCCCC1 was read as VDR inh inconclusive.
`Cc1ccc(NC(=O)Nc2nc(-c3ccc(C)s3)cs2)cc1` gave VDR inh -1.1%.
`CC1CCc2sc(C(=O)NNC(=S)NC3CC3)cc2C1` (centres undefined) gave VDR inh 15.3%.
COC(=O)c1ccc2c(=O)n(CC3CCCO3)c(SCC(=O)Nc3ccccc3Cl)nc2c1 (centres undefined) was read as VDR inh 11.1%.
`COCCCNC(=O)CCCn1c(=O)[nH]c2ccccc2c1=O` gave VDR inh 12.5%.
For COCCNC(=O)C(c1ccccc1F)N(C(=O)C(=O)NC1CCCC1)C1CCCCC1 (centres undefined) the results were VDR inh -1.5%.
CSCCC(NC(=O)c1ccc(Cl)cc1Cl)C(=O)N1CC(C)OC(C)C1 (centres undefined) was read as VDR inh -28.8%.
CCc1nc(C)cn1S(=O)(=O)c1ccc(Cl)c(Cl)c1OC was read as VDR inh -20.1%.
`C=CCNS(=O)(=O)NC(=O)C1=C(N2CCCC2)COC1=O` gave VDR inh 12.2%.
CCOc1ccc(C2CC(=O)NC3=C2C(=O)CCC3)cc1Cl (centres undefined) was read as VDR inh -9.0%.
CN(Cc1cccc(Cl)c1Cl)C(=O)CCNC(=O)c1ccco1 was read as VDR inh 1.7%.
Screening Cc1ccc(S(=O)(=O)NCC2CCC(C(=O)NCCCN3CCCC3=O)CC2)cc1 (centres undefined) returned VDR inh -22.8%.
Screening C[C@]12CC[C@@H]3c4ccc(O)cc4C[C@@H](CCCCCCCCCS(=O)CCCC(F)(F)C(F)(F)F)[C@H]3[C@@H]1CC[C@@H]2O (some centres undefined) returned VDR inh -14.4%.
Cc1cc(N)c2cc(NC(=O)/C=C/c3ccccc3Cl)ccc2n1 was read as VDR inh 43.2%[activator].
COc1cccc2cc(C(N)=O)oc12 was read as VDR inh 3.2%.
For COc1ccc(N2CCN(S(=O)(=O)c3cccc(C(F)(F)F)c3)CC2)cc1 the results were VDR inh 0.1%.
`O=C(NCc1cccc(F)c1)c1cccc2c1C(=O)c1ccc(N3CCCC3)cc1S2(=O)=O` gave VDR inh -6.5%.
`CCOC(=O)C1CCCN(C(=O)c2cccc(S(=O)(=O)N3CCCC3)c2)C1` (centres undefined) gave VDR inh -25.1%.
Screening Cc1cccc(C)c1NC(=O)CN1C(=O)c2ccccc2Sc2ncccc21 returned VDR inh 6.9%.
Screening CCOc1ccc(C(=O)NCc2nc(-c3ccc(Cl)cc3)no2)cc1OCC returned VDR inh 0.7%.
Screening Cc1cccc(CCn2c(=O)c3ccccc3n(Cc3cccc(F)c3)c2=O)c1 returned VDR inh -21.7%.
For Cc1ccc(C(=O)N2CCCCC2)cc1NC(=O)c1nsc2ccccc12 the results were VDR inh 9.4%.
`CC(=O)Nc1ccccc1OCc1cnc(Cl)s1` gave VDR inh 4.9%.
`CCOc1ccc(C(=O)NC(C)CCc2ccccc2)cc1` (centres undefined) gave VDR inh -7.7%.

Gathered by group: those above containing an aryl methoxy group
COc1ccc(CNC(=O)CSc2nccn(-c3ccc(F)c(F)c3)c2=O)cc1 was read as VDR inh -15.5%.
For COc1ccc(CNCc2c(C(=O)O)c(C)n(Cc3ccccc3C)c2C)c(OC)c1 the results were VDR inh 17.7%.
For COc1cc(/C=N/NC(=O)c2csc3c2CCCC3)cc(OC)c1O the results were VDR inh -14.7%.
Screening COc1ccc(Cl)cc1NC(=O)CN(C)C(=O)CSc1ccc2c(c1)OCCO2 returned VDR inh 3.7%.
Screening CCN1CCN(Cc2ccc(NC(=O)c3cc(NC(=O)C(=O)c4c[nH]c5ccccc45)cc(OC)c3)cc2C(F)(F)F)CC1 returned VDR inh 48.5%[activator].
Screening COc1cc(OC)cc(C(=O)Nc2nc(CC(=O)NCCc3ccccc3)cs2)c1 returned VDR inh 8.7%.
`COc1ccc(S(=O)(=O)N2CCN(c3ccc(C)cc3C)CC2)cc1OC` gave VDR inh -26.9%.
Screening COc1cc(C(=O)N=c2sccn2C)c([N+](=O)[O-])cc1OC returned VDR inh -4.8%.
Screening COc1ccc(-c2cc(C(F)(F)F)nc(SCC(=O)Nc3ccc(C(C)=O)cc3)n2)cc1 returned VDR inh -19.8%.
COc1ccc(S(=O)(=O)n2nc(-c3ccc(Cl)cc3)cc2N)cc1OC was read as VDR inh 3.4%.
Screening COc1ccc(-c2nnn(CC(=O)NCCc3c[nH]c4ccccc34)n2)cc1OC returned VDR inh 0.7%.
Screening COc1ccc(NC(=O)CS(=O)(=O)c2ccc(F)cc2)cc1 returned VDR inh 10.9%.
For CCOC(=O)c1oc2c(CN3CCCCC3C)c(O)ccc2c(=O)c1-c1ccc(OC)c(OC)c1 (centres undefined) the results were VDR inh 16.1%.
COc1ccc(-n2c(C)ccc2C)c([N+](=O)[O-])c1 was read as VDR inh -12.8%.
For COc1cc2c(cc1OC)C(c1ccc(O)cc1)NCC2 (centres undefined) the results were VDR inh -20.1%.
CCc1nc(C)cn1S(=O)(=O)c1ccc(Cl)c(Cl)c1OC was read as VDR inh -20.1%.
COc1cccc2cc(C(N)=O)oc12 was read as VDR inh 3.2%.
For COc1ccc(N2CCN(S(=O)(=O)c3cccc(C(F)(F)F)c3)CC2)cc1 the results were VDR inh 0.1%.
